CtBP-E1A inh: qHTS Assay for Inhibitors of the CtBP/E1A Interaction; CtBP / adenovirus E1A interaction (AlphaScreen); AlphaScreen GST-E1A/His-CtBP binding, 1536-well; active compounds read low; control for the full effect not named in the record; activity change, % (no concentration beside the values); actives 0.49% (n = 340,000); AID 651724, 2012; in the data active means activity change below about -65%; inconclusive means about -30% to -65%; inactive means above about -30%; further: on the % scale 0 is the no-effect control and ±100 the full control effect
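In 5 uL wells, 23 nL compound meets equimolar GST-E1A and His-CtBP (5X stock 125 nM each) for 2 h, 37 °C. Beads (5X, 50 ug/mL) then 1 h, 37 °C, dark.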
gsp antag: qHTS for Antagonists of gsp, the Etiologic Mutation Responsible for Fibrous Dysplasia/McCune-Albright Syndrome: qHTS | actives 0.4% (n = 340,000) | Potency, µM (doses to about 76.9 µM), for the others: at the top dose activity change, negative = inhibition, most hits filed as inhibitors | AID 624288, 2012 | gsp-mutant cells, cAMP HTRF, 30 min; control for the full effect not named in the record; active = falling curve of any shape with a large fitted effect; inconclusive = falling curve, mostly with a smaller effect; inactive = flat or rising curve; cell line not stated here;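 further: intracellular cAMP measured with PDE inhibitor Ro 20-1724 present during compound exposure; potency means the concentration at half of the fitted maximal effect; on the % scale 0 is the no-effect control and ±100 the full control effect; nearly all actives have a fitted effect of over 65% in size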
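G418-selected cells were plated in DMEM/10% FBS for 16-24 h at 37C, then treated with compounds plus the PDE inhibitor […] (300 uM solution added) for 30 min at 37C. Intracellular cAMP was measured by HTRF after 30 min lysis at room temperature.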
TRPV1 potentiator: HTS Assay for Compounds that Act as Potentiators of the Vanilloid Receptor 1 | potentiation, % at 8.33 µM | actives 0.02% (n = 320,000) | TRPV1-expressing cells, Fluo-8 calcium influx, capsaicin EC20 potentiation; host cell line not named in the record; control for the full effect not named in the record; active means potentiation above 80%; inconclusive means 30% to 80%; inactive means below 30%; further: 0% is about no effect
Target sequence (Q8NER1 whole entry, looked up): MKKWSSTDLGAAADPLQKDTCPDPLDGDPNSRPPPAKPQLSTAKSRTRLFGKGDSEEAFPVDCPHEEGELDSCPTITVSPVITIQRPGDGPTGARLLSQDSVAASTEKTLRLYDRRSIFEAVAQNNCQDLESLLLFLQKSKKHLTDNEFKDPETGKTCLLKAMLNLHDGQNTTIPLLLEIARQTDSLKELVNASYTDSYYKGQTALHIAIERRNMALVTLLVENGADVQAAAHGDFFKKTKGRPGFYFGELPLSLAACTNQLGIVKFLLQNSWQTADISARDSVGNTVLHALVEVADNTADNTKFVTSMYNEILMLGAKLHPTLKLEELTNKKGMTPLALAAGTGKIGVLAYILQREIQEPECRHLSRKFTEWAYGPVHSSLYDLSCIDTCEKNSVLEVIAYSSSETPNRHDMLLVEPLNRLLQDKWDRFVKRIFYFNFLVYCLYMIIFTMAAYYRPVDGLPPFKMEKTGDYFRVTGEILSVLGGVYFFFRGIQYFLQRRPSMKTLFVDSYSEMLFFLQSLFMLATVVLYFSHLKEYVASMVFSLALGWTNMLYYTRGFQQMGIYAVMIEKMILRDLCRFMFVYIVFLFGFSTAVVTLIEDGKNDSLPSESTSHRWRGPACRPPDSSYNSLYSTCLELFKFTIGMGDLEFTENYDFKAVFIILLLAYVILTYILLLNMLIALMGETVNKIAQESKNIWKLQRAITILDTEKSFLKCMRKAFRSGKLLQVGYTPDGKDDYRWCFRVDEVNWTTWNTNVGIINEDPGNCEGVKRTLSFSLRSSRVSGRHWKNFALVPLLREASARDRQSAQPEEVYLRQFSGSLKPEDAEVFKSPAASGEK
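Fluo-8 calcium influx in TRPV1-expressing cells, kinetic read (ex 480/em 520 nm). Compound added and read 3 min for agonist activity, followed by capsaicin at EC20 final and 2 min further read for enhancement.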
Sfp inh: qHTS Assay for Inhibitors of Bacillus subtilis Sfp phosphopantetheinyl transferase (PPTase); 4'-phosphopantetheinyl transferase ffp (Bacillus subtilis), Q9F4F7; actives 3.5% (n = 310,000); AID 1490, 2009; Biochemical Sfp PPTase activity, qHTS; Potency, µM, without a hit: max response, negative = inhibition, actives largely listed as inhibitors; active means well fitted inhibition curve with a large enough effect; inconclusive means small, poorly fitted or top-dose-only effect, or another doubt; inactive means no such curve, though single readings can be large or run the other way;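 further: the enzyme is Sfp with the accession as filed and its product quenches rhodamine fluorescence; potency means the concentration at half of the fitted maximal effect; 0% = enzyme reaction without inhibitor and -100% = no enzyme wells; top concentration of the series not given in the record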
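Fluorescence-quenching assay with 15 nM Sfp, 5 uM rhodamine-CoA and 12.5 uM BHQ-2-labelled ybbR peptide in pH 7.6 Hepes/MgCl2 buffer. Enzyme was pre-incubated with compound for 15 min at room temperature. Rate was taken from the 30-min fluorescence change (525/598 nm).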
gsp ag: qHTS for Agonist of gsp, the Etiologic Mutation Responsible for Fibrous Dysplasia/McCune-Albright Syndrome: qHTS; actives 0.13% (n = 340,000); gsp mutant cells, cAMP HTRF, 30 min; control for the full effect not named in the record; AID 624287, 2012; Potency, µM (top dose mostly 76.9 µM), for the others: at the highest dose activation (cAMP increase), most hits filed as activators; active = well fitted activation curve with a large enough effect; inconclusive = small, poorly fitted or top-dose-only effect, or another doubt; inactive = no such curve, though single readings can be large or run the other way; cell line not stated here;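 further: phosphodiesterase inhibitor Ro 20-1724 added with compounds to block cAMP breakdown; potency means the concentration at half of the fitted maximal effect; nearly all actives have a fitted effect of over 60% in size; about a fifth of the inactives were tested at one dose only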
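Cells in DMEM/10% FBS with G418 were pretreated with compounds in DMSO plus […] (300 uM stock) for 30 min at 37C. cAMP was measured by HTRF (cAMP-d2 plus anti-cAMP antibody-K) after 30 min at room temperature.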
Menin-MLL FL inh: qHTS Assay for Inhibitors Targeting the Menin-MLL Interaction in MLL Related Leukemias: Competition With Fluorescein Labeled MLL-derived Peptide. Fluorescence polarization, fluorescein-MLL peptide displacement from menin. AID 1766, 2009. 290,000 tested, under 10 active. FP activity change, % at 61.4 µM; inconclusive = falling polarisation curve, or a change in total fluorescence; inactive = total fluorescence flat and polarisation flat or rising; no compound was filed as active; the % refers to the polarisation; negative = inhibition;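 further: % of control where 0% means no effect; inhibitors lower the polarisation; unlabelled MLL peptide was the positive control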
ClpP mod: qHTS Assay for Activators of ClpP; ATP-dependent Clp protease proteolytic subunit (Bacillus subtilis (strain 168)), P80244; purified B. subtilis ClpP, FRET peptide cleavage, 20 min; Potency, µM (series often up to 57.5 µM), inactives show at the highest dose activity change, negative = active; actives 1.9% (n = 340,000); active = well fitted falling curve with a large enough effect; inconclusive = small, poorly fitted or top-dose-only effect; inactive = no such curve, though single readings can be large or run the other way; further: potency means the concentration at half of the fitted maximal effect; the source files actives as falling curves though it sought activators and does not explain the sign; nearly all actives have a fitted effect of over 65% in size; many hits overshoot -100%
Target sequence (P80244 whole entry, looked up): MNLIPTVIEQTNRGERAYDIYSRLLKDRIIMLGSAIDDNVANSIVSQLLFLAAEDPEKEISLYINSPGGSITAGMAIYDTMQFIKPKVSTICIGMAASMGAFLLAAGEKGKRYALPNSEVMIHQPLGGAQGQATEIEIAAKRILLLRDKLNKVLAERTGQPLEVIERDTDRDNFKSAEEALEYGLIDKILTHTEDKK
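FRET quenching reversal measured ClpP activation: 10 microg/mL B. subtilis ClpP at pH 8 with the FRET-FV decapeptide, read at 430 nm after 320 nm excitation. The 20-min minus 0-min signal was scaled between DMSO/no-enzyme wells and ADEP (5.8 microM final).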
Active calls of the source: *; i = inactive; ? = inconclusive; . = not tested or not shown; [ ] = dose if it differs, or a comment.

SMILES | CtBP-E1A inh | gsp antag | TRPV1 potentiator | Sfp inh | gsp ag | Menin-MLL FL inh | ClpP mod
Cc1cc(C)n(-c2ccc(C(=O)N3CCN(S(=O)(=O)c4ccc(Cl)cc4)CC3)cc2)n1 | 3 | -13% | 11 | . | 24% | . | 0.6%
Cc1cc(C)n(C(=O)CSc2nc3ccccc3o2)n1 | 6 | -1% | -4 | 2% | -22% | -0.5 | 0.7%
O=[N+]([O-])c1ccc(Sc2ccc(F)cc2)nc1 | -7 | -16% | . | . | -15% | . | 0.6%
O=C(c1cccc(S(=O)(=O)Nc2cccc(C(F)(F)F)c2)c1)N1CCOCC1 | -1 | -6% | 14 | 19% | 6%[15.4 µM] | 2.0 | .
O=[N+]([O-])c1ccc(CSc2ccc(S(=O)(=O)N3CCCCCC3)cn2)cc1 | -9 | 11% | 8 | . | 5%[15.4 µM] | . | .
COC(=O)COc1ccc(NC(=O)C(c2ccccc2)c2ccccc2)cc1 | . | ? | 22 | 16% | -12% | 0.9 | 0.8%
Clc1cccc(-c2ccc(CNCCCN3CCOCC3)o2)c1 | -1 | 12% | 1 | -6% | 12%[15.4 µM] | -0.4 | .
Cc1cc(C)c(S(=O)(=O)N2CCN(C(=O)N3CCOCC3)CC2)c(C)c1 | 10 | -9% | -34 | 8% | 26% | -7.5 | 2.5%
N#CC1=C(N)Oc2[nH]c(=S)[nH]c(=O)c2C12C(=O)Nc1ccccc12 (stereo not drawn) | -12 | -4% | 4 | 40µM* | -18% | 0.3 | .
COc1cc(/C=N/NC(=S)NCCN2CCOCC2)cc(OC)c1OC | -1 | 5% | 4 | ? | 29%[15.4 µM] | 0.8 | -2.7%
Cc1ccc(NC(=O)CC(=O)Nc2ccc(C)cc2)cc1 | 0 | -11% | -22 | 12% | -2%[15.4 µM] | -0.3 | .
COc1ccc(-c2ccc(C)cc2)cc1[C@H]1[C@H]2C=CC[C@@H](C)[C@@H]2C(=O)N1Cc1ccccc1 | . | 4% | 5 | -4% | 0% | 0.4 | -3.1%
COc1cc(CNC(=O)C2CC(O)CN2C(=O)Nc2ccccc2)cc(OC)c1OC (stereo not drawn) | 0 | . | . | . | -28% | . | -1.0%
O=C(Nc1ccc(Cl)c(C(F)(F)F)c1)NC1CC2CCCC(C1)N2Cc1ccccc1 (stereo not drawn) | 0 | -2% | -9 | -2% | -18%[15.4 µM] | 0.2 | .
O=C1CCC(C(=O)Nc2ccccc2N2CCOCC2)=NN1 | 1 | 7% | 7 | 15% | 9% | 0.4 | .
Cc1cccc(OCc2nnc(SCC(=O)Nc3ccc(C)c(Cl)c3)o2)c1 | 2 | -1% | 14 | 6% | 13% | 1.4 | 4.4%
O=C1Nc2c(ccc(Cl)c2Cl)C(=O)C1(F)c1ccccc1 (stereo not drawn) | -6 | -20% | -14 | -10% | -24% | 1.5 | .
CCOC(=O)/C(N=Nc1ccc2c(c1)OCO2)=C(\C)O | -22 | -14% | -12 | -2% | 20%[15.4 µM] | 0.7 | .
Cc1cc(C(=O)NNc2c(Cl)cccc2Cl)no1 | . | 0% | 8 | 3% | 0% | -4.2 | -0.3%
COc1ccc([C@]23Cc4ccccc4C(O2)c2c(c4ccc(OC)cc4oc2=O)O3)cc1 | . | . | i | 3% | . | 0.0[11.7 µM] | .
CCOC(=O)N1CCN(C(=O)CSc2ncnc3ccccc23)CC1 | 0 | 6% | 9 | -16% | ? | 0.7 | -1.2%
Cc1ccc2oc(=O)c3cc(C(=O)Nc4cc(-c5cccc(F)c5)no4)sc3c2c1 | . | . | 9 | 11% | . | 0.2 | .
CC(C)[C@H](NC(=O)CCCn1nnc2ccccc2c1=O)C(=O)O | 2 | 12% | 3 | 10% | 33% | -0.4 | 1.2%
CCN(CC(=O)Nc1c(F)cccc1F)C(=O)c1ccc(-n2cncn2)c([N+](=O)[O-])c1 | 1 | 4% | 2 | . | 5%[15.4 µM] | . | -0.1%
Cc1oc2cc3oc(=O)ccc3cc2c1C | . | 0% | -8 | 6% | -14% | 3.7 | -3.7%
c1ccc(CNc2ccccn2)cc1 | . | 0% | 23 | 2% | -17% | -2.5 | 4.4%
O=S(=O)(NCCOc1ccccc1)c1ccc2ccccc2c1 | 6 | 5% | -11 | 13% | -44%[inhibitor] | 0.9 | -2.7%
CC(C)(C)NC(=O)N1CCN(c2ncccc2C(F)(F)F)CC1 | . | 0% | 0 | 0% | -37%[inhibitor] | 1.3 | 0.1%
C#CCN(C(=O)c1cc(COc2cccc(C(F)(F)F)c2)on1)C1CCCCC1 | 27 | -15% | -4 | 13% | 9% | . | -1.1%
O=C(CN1C(=O)/C(=C2\SC(=S)N(C3CCS(=O)(=O)C3)C2=O)c2ccccc21)Nc1ccccc1 (stereo not drawn) | -1 | -7% | -3 | 28µM* | -10%[15.4 µM] | 0.5 | 0.8%
CC(=O)NNC(=O)c1[nH]c2ccc(Cl)cc2c1-c1ccccc1 | . | -8% | -6 | 6% | 27% | 0.9 | -9.8%
O=C(NCCc1ccccc1)c1oc2ccccc2c1COc1ccccc1 | -2 | 2% | -15 | -10% | -9%[15.4 µM] | 3.7 | 0.1%
Cc1ccc(NC(=O)c2cc(NC(=O)c3ccco3)ccc2N2CCOCC2)cc1 | -12 | -21% | -2 | -7% | -1% | 2.9 | -2.7%
CC(=O)c1ccc(-n2nnnc2SCC(=O)Nc2cccc(NC(=O)c3ccco3)c2)cc1 | -5 | 4% | 4 | 21% | 8% | 11 | -3.4%
N#Cc1c(-c2ccco2)cc(-c2cccnc2)nc1N | -13 | 9% | -9 | -24% | ? | 2.0 | ?
CCCCc1cc(=O)oc2cc(C)cc(OC(C)C(=O)NCc3cccnc3)c12 (stereo not drawn) | -7 | -17% | -16 | 8% | ? | . | 3.6%
O=[N+]([O-])c1ccc(Cl)c(S(=O)(=O)Nc2ccc(S(=O)(=O)N3CCOCC3)cc2)c1 | -2 | -18% | 28 | 8% | -1%[15.4 µM] | 0.7 | -0.1%
CSc1nc2sc3c(c2c(=O)[nH]1)CCC3 | -4 | -3% | -3 | 0% | -21% | -0.1 | 1.3%
CS(=O)(=O)N1CCN(C(=O)c2ccc(F)cc2)CC1 | 0 | 19% | -4 | 5% | -5% | 6.1 | 2.0%
CC(C)CCC(C(=O)NC(C)c1ccccc1)C(=O)NC(C)c1ccccc1 (stereo not drawn) | -4 | 2% | -5 | 15% | 14% | -1.4 | .
O=C(COc1ccc(Br)cc1)N(Cc1nnc(-c2ccccc2Cl)o1)C1CC1 | -3 | . | . | . | -37% | . | -2.4%
CCN(CC(=O)Nc1ccc(NC(C)=O)cc1)C(=O)CCCOc1cccc(C)c1 | -2 | -5% | 12 | . | -1%[15.4 µM] | . | .
O=C(O)c1cccc(N/N=C/c2cc(Br)cc(Br)c2O)c1 | ? | -10% | 7 | 9% | 1% | 3.0 | -3.4%
COc1ccc(Br)cc1CSC(=N)N | 18 | 9% | 2 | -7% | -6% | 0.0 | .
CCCCNc1c([N+](=O)[O-])ncn1C | 3 | 6% | -2 | 22% | 11%[15.4 µM] | 2.3 | .
COc1ccc(N(CC(=O)NCCSCc2ccc(C)cc2)S(=O)(=O)c2ccccc2)cc1 | 0 | -33% | 0 | 8% | -23%[15.4 µM] | 1.3 | 2.6%
O=C(Nc1ccc(Nc2ccccc2)cc1)c1ccc(Cl)c([N+](=O)[O-])c1 | . | ? | 5 | 3% | -34%[inhibitor] | -0.2 | -0.8%
O=C(NC12CC3CC(CC(C3)C1)C2)N1CCCC(CO)C1 (stereo not drawn) | 6 | 6% | -31 | 3% | -3% | 1.2 | -2.8%
COc1ccc(C2C=C(c3ccc(Br)cc3)Nc3nc(NS(C)(=O)=O)nn32)cc1 (stereo not drawn) | . | . | 9 | 0% | . | ? | .
CN(C(=O)c1cccc(NC(=O)Cc2ccc(NC(=O)C3CCN(C(=O)CCc4ccccc4)CC3)cc2)c1)C1CC1 | -2 | 4% | . | . | . | . | 0.0%

More compounds follow.
SMILES | CtBP-E1A inh | gsp antag | TRPV1 potentiator | Sfp inh | gsp ag | Menin-MLL FL inh | ClpP mod
CCOC(=O)C1CCCN(C(=O)CSc2nc(C)cc(C)n2)C1 (stereo not drawn) | 10 | 7% | 0 | -2% | 1%[15.4 µM] | ? | .
Cc1cccc(OCCNC(=O)c2cc(-n3cnnc3)ccc2Cl)c1 | 0 | 0% | 6 | 10% | -3% | -1.5 | 0.9%
Cc1ccccc1-n1c(SC(C)C(N)=O)nnc1-c1cccnc1 (stereo not drawn) | 4 | 12% | -7 | 16% | 7% | -1.6 | -1.8%
Oc1ccc(Cl)cc1N=Nc1ccccc1 | . | -1% | -5 | 16% | ? | 0.6 | 0.3%
COc1cc(C2C(C(=O)c3cccs3)=C(O)C(=O)N2c2cc(C)on2)ccc1O (stereo not drawn) | -7 | -4% | 10 | -11% | -18% | -1.6 | -4.0%
Cc1nc(N)sc1N=Nc1ccc(F)cc1 | ? | -11% | -6 | -28% | -4% | -1.1 | -4.8%
CSc1ccc(S(=O)(=O)Nc2ccc(F)cc2)cc1 | 2 | 0% | ? | 0% | 2% | 2.4 | -1.3%
COc1ccc(/C=C/C(=O)OC2CCCCC2CN(C)C)cc1 (stereo not drawn) | 3 | -1% | -6 | 9% | 16%[15.4 µM] | -1.3 | .
COc1ccc(CC(=O)NCc2ccc(F)cc2)cc1S(=O)(=O)N1CCOCC1 | -3 | 6% | 5 | . | -90%[inhibitor] | . | 1.1%
COc1ccc(OCC(O)CNC(=O)c2sccc2Cl)cc1 (stereo not drawn) | -1 | 4% | 4 | 11% | -9%[15.4 µM] | 0.6 | .
C=CCCC(=O)N1CCCC(Cc2cccc(Cl)c2)(C(=O)OCC)C1 (stereo not drawn) | 5 | -20% | -17 | 7% | ? | 3.7 | .
